Bead autofluor: flagged as autofluorescent in microsphere protease counterscreen; compound autofluorescence counterscreen, microsphere flow cytometry; hits give high values; fluorescence intensity (concentration not given with the values); 360,000 tested, 3.1% active; AID 624483;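 active = at least 3 SD above the mean of all compounds, about 16000 in these data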;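 note: 100 nL of 1 mM stock went into each well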
BJeLR lethal: BJeLR cell viability loss; inhibition, % (test concentration not listed); AID 1554; 300,000 tested, 0.17% active; BJeLR (HRASV12) viability, CellTiter-Glo ATP luminescence, 48 h; reference of the scale not given here;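 active = replicate mean above 50%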;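 note: 50 nL library stock added to about 25 µL; numbers are from one replicate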
Mtb hypoxia rep: inhibitors of hypoxia-regulated fluorescent reporter in Mycobacterium tuberculosis | M. tuberculosis hypoxia-regulated fluorescent reporter, fluorescence | fluorescence inhibition, % (test concentration not listed) | 300,000 tested, 0.1% active | AID 1159583;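 active = 35 to 45% if threefold the growth effect, above 45% if 1.5-fold the growth effect; inactive = the rest, general growth blockers included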;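 note: wells of about 50 µL received 100 nL stock; 0% = vehicle wells and 100% = reference inhibitor wells; whole bacteria with a GFP reporter of the hypoxia response; strong numbers were not always called active; many hits fall short of the cut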
PrP UTR inh: suppresses PrP 5' UTR mRNA reporter expression; cell-based PrP 5' UTR mRNA reporter, plate reader; inhibition, % (concentration not given with the values); 340,000 tested, 0.35% active;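 active = every replicate at 50% or more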;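 note: 0 = median of the neutral control wells; tested in H4 reporter cells; numbers are from one replicate; inactives centre near -14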
Sa RN4220 lethal: S. aureus RN4220 growth inhibition; 330,000 tested, 0.33% active; OD600, 16 h; AID 1259311; inhibition, % (concentration not given with the values);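 active = z-score of -3 or lower and OD600 up to 0.18 on both plates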;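 note: plate controls were untreated cells for no effect and reference antibiotic for full effect; stock transfer was 100 nL into about 80 µL; one replicate is shown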
ugtP null kill: compounds lethal to S. aureus RN4220 ugtP deletion mutant; OD600 growth, 16 h; some inactives read as strong as hits; growth inhibition, % (no concentration beside the values); 330,000 tested, 0.54% active;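 active = z-score under -3 and OD600 up to 0.15 on both plates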;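 note: plate controls were untreated wells for no effect and antibiotic for full effect; wells of about 80 µL received 100 nL stock; the first replicate is given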
Mtb hypoxia rep growth: second read-out of Mtb hypoxia rep, no call of its own (marks repeat the call); growth inhibition, %; measured here: M. tuberculosis growth (absorbance);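 0% = vehicle and 100% = reference antibiotic; read after six days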
* hit, by the source's call; . = not tested or not shown. An unsorted share of the library, and some 4% of all compounds hit somewhere here.

Start of the data: the first 7 entries, ahead of the listing:
SMILES | Bead autofluor | BJeLR lethal | Mtb hypoxia rep | Mtb hypoxia rep growth | PrP UTR inh | Sa RN4220 lethal | ugtP null kill
CC(C)c1ccc(NC(=O)C(c2ccccc2)N(C)C(=O)c2cnccn2)cc1 (configuration not stated) | 3067 | -7 | 5 | 3 | -8 | 4.7 | 0
COc1ccc(NC(=O)CN(C)C(=O)c2cc(CN3C(=O)c4ccccc4C3=O)ccc2OC)cc1 | 5137 | 6 | -1 | 2 | -17 | 0.1 | 2
O=C(O)c1ccc2nc(-c3ccccc3)c(-c3ccccc3)nc2c1 | 2580 | 11 | 0 | 2 | -13 | -8.9 | 3
O=C(c1c(F)cccc1F)N1CCCc2ccccc21 | 4551 | -7 | 11 | 1 | -31 | 5.0 | 15
O=C1N=C(N2CCOCC2)S/C1=C/c1cccs1 | 7648 | 13 | -1 | 5 | -12 | 5.6 | 2
CON1C(=O)C(=O)N(OC)C2CCCCC21 (configuration not stated) | 8284 | -2 | -2 | -7 | -17 | 3.4 | 7
Oc1ccc(O)c(Cc2nc3ccccc3s2)c1 | 3524 | 13 | 1 | -6 | -11 | -1.4 | 0

All compounds of this part, from the first entry:
SMILES | Bead autofluor | BJeLR lethal | Mtb hypoxia rep | Mtb hypoxia rep growth | PrP UTR inh | Sa RN4220 lethal | ugtP null kill
CC(C)c1ccc(NC(=O)C(c2ccccc2)N(C)C(=O)c2cnccn2)cc1 (configuration not stated) | 3067 | -7 | 5 | 3 | -8 | 4.7 | 0
COc1ccc(NC(=O)CN(C)C(=O)c2cc(CN3C(=O)c4ccccc4C3=O)ccc2OC)cc1 | 5137 | 6 | -1 | 2 | -17 | 0.1 | 2
O=C(O)c1ccc2nc(-c3ccccc3)c(-c3ccccc3)nc2c1 | 2580 | 11 | 0 | 2 | -13 | -8.9 | 3
O=C(c1c(F)cccc1F)N1CCCc2ccccc21 | 4551 | -7 | 11 | 1 | -31 | 5.0 | 15
O=C1N=C(N2CCOCC2)S/C1=C/c1cccs1 | 7648 | 13 | -1 | 5 | -12 | 5.6 | 2
CON1C(=O)C(=O)N(OC)C2CCCCC21 (configuration not stated) | 8284 | -2 | -2 | -7 | -17 | 3.4 | 7
Oc1ccc(O)c(Cc2nc3ccccc3s2)c1 | 3524 | 13 | 1 | -6 | -11 | -1.4 | 0
CCCN(CC(=O)Nc1ccc(C(N)=O)cc1)CC(=O)Nc1ccc(F)c(F)c1F | 3110 | -8 | 14 | 3 | -18 | 1.4 | 3
O=C(C1CCN(S(=O)(=O)c2cccs2)CC1)N(c1ccccn1)C1CCCCC1 | 4758 | -2 | 15 | 13 | -19 | 1.3 | 21
Cc1cc(C(=O)OCC(=O)c2ccc(Br)s2)no1 | 11052 | 16 | 14 | 6 | . | 5.0 | 8
CS(=O)(=O)N(CC(=O)NCCC1=CCCCC1)C1CCCCC1 | . | 1 | -4 | 5 | 2 | 7.7 | -7
CCOc1ccc(C(=O)NCc2ccncc2)cc1OCC | 4503 | 3 | -3 | 6 | -5 | 3.1 | 1
Clc1nnc(NN=C2CCCC2)c2ccccc12 | 2542 | 5 | -2 | 1 | -19 | 1.4 | 3
CC(=O)Nc1ccc(N2C(=O)CC(N3CCSCC3)C2=O)cc1 (configuration not stated) | 1914 | 7 | -4 | 3 | -22 | -2.3 | 3
Cc1ccnc(NC(=O)c2ccc(Cl)c(S(=O)(=O)N3CCCCC3)c2)c1 | 5511 | . | -2 | 7 | . | 0.8 | 3
COc1ccc(Nc2nc(N)nc(CN3CCN(c4ccccn4)CC3)n2)cc1 | 5049 | 4 | . | . | -33 | 1.7 | -8
Cc1csc(NC(=O)CSc2nnc(NC(=O)C3CC(=O)N(c4ccccc4)C3)s2)n1 (configuration not stated) | 9750 | 12 | -3 | -8 | -7 | -6.7 | -27
CCN(CC)C(=O)Cn1cc(S(=O)(=O)CC(=O)Nc2cc(OC)ccc2OC)c2ccccc21 | 6167 | -1 | 2 | 2 | -7 | 1.1 | -1
O=C(Nc1cccc(S(=O)(=O)N2CCCC2)c1)c1cccc(S(=O)(=O)N2CCOCC2)c1 | 3115 | . | -9 | -9 | -13 | 4.4 | 1
Cc1cc(OCC(=O)NC2CC2)c2c(C)cc(=O)oc2c1 | 6467 | 1 | 9 | 2 | -13 | 1.6 | -7
O=C(Nc1ccc(N2CCOCC2)cc1)c1ccc([N+](=O)[O-])cc1 | 4102 | 1 | -7 | 1 | -33 | 1.7 | 4
CN(C)CCn1c2c(c(SCC(=O)Nc3ccccc3)nc1=O)CCCC2 | . | 2 | -2 | 4 | -5 | 0.0 | 3
O=C(CCc1ccccc1)NNC(=S)Nc1ccc(F)cc1 | 3929 | 8 | . | . | -16 | . | .
CC(=O)C1=C(O)C(=O)N(Cc2cccnc2)C1c1ccccc1 (configuration not stated) | 6137 | -1 | 8 | 3 | -13 | 7.5 | 5
CCc1cc(C(=O)NN=Cc2ccc(O)cc2O)c2ccccc2n1 | . | . | 1 | -2 | . | 3.7 | 9
COc1ccccc1C=NNC(=O)c1nnn(-c2nonc2N)c1CSC1=NCCS1 | . | . | 5 | -2 | . | 4.3 | 2
Cc1cc(C)c2c(=O)n(CC(=O)Nc3ccc(Cl)cc3)sc2n1 | 3796 | -2 | -2 | -8 | -16 | 18 | 0
Nc1nc2ccc(N3CCOCC3)cc2s1 | 4470 | . | . | . | -29 | 1.1 | 5
CCCCC(CC(=O)c1ccccc1)C(OC(C)=O)C(=O)Oc1c(C(C)C)cccc1C(C)C (configuration not stated) | . | . | 17 | 9 | . | 5.2 | 2
COCc1cc(=O)[nH]c(-c2ccccc2OC(F)(F)F)n1 | 4130 | 10 | 9 | 4 | -27 | 4.7 | 9
O=C(NCC1CCCO1)c1cccs1 (configuration not stated) | 17278* | 2 | 1 | -2 | 4 | 3.7 | 8
CCCn1c(O)c(N=NC(=O)c2cccnc2)c2cc(Br)ccc21 | 4227 | 9 | -5 | 5 | 0 | 1.9 | 15
Cc1ccc(OCC(=O)Nc2ccc(N3CCN(S(C)(=O)=O)CC3)cc2)cc1 | 3245 | 3 | 8 | -3 | -7 | -2.6 | 2
CCc1ccc(N(CC(=O)NC2CCCC2)C(=O)CCC(=O)Nc2ccccn2)cc1 | 3864 | 1 | -8 | 2 | -39 | 8.4 | -6
CCOc1cc(C(=O)N/N=C/c2ccsc2)cc(OCC)c1OCC | 2459 | -2 | . | . | -21 | . | .
CC(C)NC(=O)CCNC(=O)c1ccc(F)cc1 | 10793 | 0 | -4 | 5 | -8 | 1.0 | 1
O=S(=O)(ON(c1ccccc1)S(=O)(=O)c1ccccc1)c1ccccc1 | 2079 | 7 | 9 | 8 | -5 | 12 | 2
CN(C(=O)c1cccc(NC(=O)Cc2cccc(NC(=O)C3CCN(C(=O)C4CCCCC4)CC3)c2)c1)C1CC1 | 3057 | . | 2 | 1 | -13 | 4.2 | 9
O=C(NCC1CCCCC1)c1ccc(=O)[nH]c1 | 3370 | -17 | 9 | 5 | -18 | 4.3 | 10
CC(C)CC(=O)NC(=S)Nc1ccc(NC(=O)c2cccs2)cc1 | 9613 | -3 | . | . | -44 | 2.8 | 83*
Cc1ccsc1C1CC(=O)OC2=C1C(=O)CC(C)(C)C2 (configuration not stated) | . | -5 | -8 | -2 | . | 1.4 | 0
Cc1c(C(=O)N2CCCC2)oc2c1-c1nn(CC(=O)NCCCN3CCCCC3C)cc1CC2 (configuration not stated) | 6297 | 7 | 0 | 10 | -1 | 0.8 | 1
Cc1cc(/C=N/n2c(COc3ccccc3C)nc3ccccc3c2=O)c(O)c([N+](=O)[O-])c1 | 2223 | -11 | . | . | -19 | . | .
CCc1ccccc1-n1c(SCC(=O)N2CCCC2)nc2[nH]ncc2c1=O | 4405 | 1 | 6 | 6 | -4 | 3.5 | -2
COc1ccc2sc(-c3ccc(N(C)C)cc3)c(C#Cc3cncn3C)c2c1 | 4354 | . | 23 | 22 | -1 | 78 | 82*
O=C1C2CCCN2C(=O)N1CCCCN1CCN(CCO)CC1 (configuration not stated) | 8467 | 3 | 7 | 1 | -72 | 1.0 | 5
CCOC(=O)CSC(C)C(=O)Nc1nnc(C(C)C)s1 (configuration not stated) | 5542 | 4 | 5 | 9 | -4 | 3.3 | 10
CC(C)(C)C(=O)CN1C2=NCCCN2c2ccccc21 | 4119 | 3 | -3 | 2 | -8 | 2.3 | 8
C(=NNC1=NCCN1)c1ccncc1 | . | . | 0 | -6 | . | 1.6 | 11
COc1ccccc1CNC(=O)CSc1nn2c(=O)c(C(C)(C)C)nnc2s1 | 4596 | -7 | 3 | 1 | -21 | 2.5 | -9
O=c1c2cn[nH]c2[nH]c(=S)n1-c1ccccc1F | 10259 | 0 | 8 | 2 | . | 4.3 | 7
COc1ccc(NC(=S)N(Cc2ccc(N(C)C)cc2)Cc2ccco2)cc1 | 7159 | 6 | 7 | 2 | -42 | 7.3 | 8
CC(C)(C)C(=O)C=c1sc(=Cc2ccc(-c3ccc([N+](=O)[O-])cc3)o2)c(=O)n1CC(=O)NC(N)=O | . | . | -10 | 8 | . | -4.1 | 13
COc1cccc(OC)c1NC(=O)CN1CCN(C)CC1 | 4054 | -7 | 5 | -2 | -9 | 0.3 | 12
Cc1ccc(SCC(=O)NCCSC(C)(C)C)cc1 | 2876 | 4 | . | . | -20 | -3.0 | 0
O=C(COC(=O)c1c(F)cccc1Cl)NC(=O)Nc1ccc2c(c1)OCCO2 | 8240 | . | 10 | 13 | -15 | 0.2 | 6
COc1ccc(OC)c(-c2cc(C(=O)NCc3ccco3)no2)c1 | 8033 | -2 | 7 | 5 | -2 | 5.1 | 15
O=C(NC1CCCCCCC1)c1c(O)c2ccccc2[nH]c1=O | 7828 | 9 | 0 | 1 | -62 | 9.4 | 0
Nc1cc(=O)[nH]c(SCC(=O)Nc2cc(S(=O)(=O)N3CCOCC3)ccc2Cl)n1 | 4788 | -4 | 14 | 5 | -18 | -2.4 | 4
Cc1ccc(NC(=O)N2CCOCC2)c(C)c1 | 2385 | 8 | . | . | -20 | -2.0 | 6

Continuation:
SMILES | Bead autofluor | BJeLR lethal | Mtb hypoxia rep | Mtb hypoxia rep growth | PrP UTR inh | Sa RN4220 lethal | ugtP null kill
O=C(CNC1CCCCC1)Nc1cc(S(=O)(=O)N2CCOCC2)ccc1Cl | 3483 | 1 | 16 | 8 | -3 | 5.0 | 4
N#Cc1ccc(S(=O)(=O)N2CCc3[nH]c4ccc(F)cc4c3C2)cc1 | 3410 | 3 | 8 | 0 | -5 | -1.3 | -18
COc1ccccc1N1CCN(C(=O)CCc2nnc3ccc(N4CCC(C)CC4)nn23)CC1 | 6199 | 7 | -2 | -1 | -14 | 1.1 | -3
CC(C)C(=O)Nc1ccc(NC(=S)NC(=O)c2cc3ccccc3o2)cc1 | 4307 | -8 | 2 | 3 | -13 | 3.7 | 5
CC(C)(C)S(=O)(=O)c1cnc(-c2ccc(Cl)cc2)nc1N | 5269 | -1 | 7 | 10 | -100 | 3.0 | 3
CCCCNC(=S)NNC(=O)c1sccc1C | 16469* | 1 | -4 | 13 | -14 | 0.4 | 1
CCc1ccccc1NC(=O)C1COc2ccccc2O1 (configuration not stated) | 4017 | -4 | 17 | -4 | -28 | 3.6 | 10
O=C(C[n+]1ccccc1)N/N=C/c1ccccc1C(F)(F)F | 3743 | -6 | . | . | -17 | . | .
CCC(=O)c1cc(F)c(N2CCN(S(=O)(=O)c3ccc(C)cc3)CC2)cc1C | 8952 | -18 | -6 | 4 | -17 | 9.0 | 17
COC(=O)c1ccc(C)c(NC(=O)CCc2ccc(OC)cc2)c1 | 2494 | -9 | 12 | 2 | -9 | 2.9 | 12
CCN(CC)c1ncnc2c1nnn2C | 4144 | . | 23 | 9 | -6 | 3.6 | 2
CC(C)OP(=O)(c1ccc(N(C)C)cc1)C(O)c1ccc(N(C)C)cc1 (configuration not stated) | 2989 | 1 | 12 | -2 | 1 | 1.0 | 9

In the list so far, 2 contain a CF3 group:
SMILES | Bead autofluor | BJeLR lethal | Mtb hypoxia rep | Mtb hypoxia rep growth | PrP UTR inh | Sa RN4220 lethal | ugtP null kill
COCc1cc(=O)[nH]c(-c2ccccc2OC(F)(F)F)n1 | 4130 | 10 | 9 | 4 | -27 | 4.7 | 9
O=C(C[n+]1ccccc1)N/N=C/c1ccccc1C(F)(F)F | 3743 | -6 | . | . | -17 | . | .
